# GLA inh pH 4.5 – alpha-galactosidase A (human) inhibition, pH 4.5. P06280. purified enzyme, 4-MU-alpha-Gal fluorescence, pH 4.5. activity change, negative = inhibition, % at 105 µM. 230,000 tested, under 10 active. AID 1467; inconclusive = small, poorly fitted or top-dose-only inhibition, or a rising curve; inactive = flat fitted curve, though single readings scatter; no compound was filed as active;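 note: 0% = full activity with enzyme and -100% = basal without enzyme; dose as in the result columns while the protocol names 77 µM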
# Rango dissoc inh – inhibition of RanGTP-driven Rango-importin beta dissociation | 340,000 tested, 0.071% active | Biochemical FRET Rango-importin beta, RanGTP-induced dissociation | O95149+P62826 | Potency, µM (titrated, usually from 46.1 µM), for the others: at the highest dose activity change, negative = inhibition | AID 540253; active means falling FRET ratio curve, often poorly fitted, with flat reads before Ran was added; inconclusive means other falling curves, or compound fluorescence or quenching; inactive means flat or rising ratio curve;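 note: potency is the fitted concentration of half-maximal effect; % of control where 0% means no effect; nearly all actives have a fitted effect of over 45% in size; -100% = wells without RanGTP and RCC1; the record marks most hits as doubtful in a second field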
#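 Recombinant Rango FRET biosensor (EYFP–snurportin 1 IBB–cerulean CFP10) at 0.1 uM premixed with 0.25 uM importin beta in PBS, 1 mM DTT, 0.02% Tween-20, 0.1% BSA. Compound added 5 min; RanGTP-RCC1 (0.6 uM Ran, 2 mM GTP, 0.2 uM RCC1) then triggers release, read at 45 min.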
# Rango-impB inh – Rango-importin beta binding inhibition | Q14974 | Rango CFP/YFP FRET sensor + importin beta, 45 min | Potency, µM (top dose mostly 92.2 µM), inactives show top-dose inhibition of complex formation | 340,000 tested, 0.031% active | AID 540263; active = rising FRET ratio curve, often small or poorly fitted; inconclusive = mostly compound fluorescence or quenching in the first reads; inactive = flat curves in all reads;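 note: potency is the fitted concentration of half-maximal effect; 0% = DMSO wells and 100% = buffer wells lacking importin beta; nearly all actives have a fitted effect of over 15% in size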
# Target sequence (Q14974 whole entry, looked up): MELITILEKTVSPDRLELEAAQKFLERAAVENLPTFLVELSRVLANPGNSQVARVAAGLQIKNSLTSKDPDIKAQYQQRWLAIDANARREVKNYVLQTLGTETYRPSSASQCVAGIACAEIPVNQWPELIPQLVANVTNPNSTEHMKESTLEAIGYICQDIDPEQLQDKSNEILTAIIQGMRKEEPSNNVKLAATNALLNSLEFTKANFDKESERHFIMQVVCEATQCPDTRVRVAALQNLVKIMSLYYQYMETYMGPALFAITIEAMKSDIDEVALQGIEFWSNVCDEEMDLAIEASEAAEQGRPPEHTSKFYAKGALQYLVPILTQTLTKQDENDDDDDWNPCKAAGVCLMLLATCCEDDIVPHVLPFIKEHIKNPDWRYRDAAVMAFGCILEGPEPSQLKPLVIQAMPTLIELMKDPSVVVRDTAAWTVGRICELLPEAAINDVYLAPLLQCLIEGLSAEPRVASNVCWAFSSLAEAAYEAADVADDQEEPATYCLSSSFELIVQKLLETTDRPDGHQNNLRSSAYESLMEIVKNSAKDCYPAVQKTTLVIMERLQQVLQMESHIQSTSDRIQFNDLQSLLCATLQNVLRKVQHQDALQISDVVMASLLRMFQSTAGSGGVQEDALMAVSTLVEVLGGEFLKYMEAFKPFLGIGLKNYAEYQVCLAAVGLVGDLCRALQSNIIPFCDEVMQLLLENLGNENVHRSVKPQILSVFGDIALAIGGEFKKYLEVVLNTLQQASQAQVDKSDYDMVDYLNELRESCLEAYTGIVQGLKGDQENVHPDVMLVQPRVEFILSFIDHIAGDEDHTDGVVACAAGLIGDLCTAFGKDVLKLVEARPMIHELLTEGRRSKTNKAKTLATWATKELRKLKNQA
#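 Inhibition scored from the CFP 486 nm/YFP 530 nm FRET ratio 45 min after adding 0.125 microM importin beta to 50 nM Rango biosensor preincubated 5 min with compound (room temperature, PBS with DTT, Tween-20, BSA). No-importin wells as positive control.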
# miR-21 reporter – miR-21 reporter, rising signal; 340,000 tested, under 10 active; AID 2288; HeLa miR-21 FLuc reporter, luciferase, 48 h; Potency, µM (top dose mostly 38.3 µM), without a hit: at the highest dose reporter change, positive = more light; active = well fitted rising curve with a large enough effect; inconclusive = small, poorly fitted or top-dose-only effect; inactive = no such curve, though single readings can be large or run the other way;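 note: % of control where 0% means no effect; miR-21 action dims this reporter so a rising signal means less miR-21 action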
#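 HeLa cells stably expressing CMV-driven firefly luciferase with a downstream miR-21 binding sequence, endogenously expressing miR-21, were treated with titrations (up to about 40uM final) for 48 hours at 37 degree Celsius. Luciferase luminescence was read after lysis.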
# * marks the source's active call; other numbers are inactive results; ? = inconclusive; / = not tested or not shown; & = joins results of further samples. These rows are one share of the data, so the mix of outcomes need not match the whole.
SMILES,GLA inh pH 4.5,Rango dissoc inh,Rango-impB inh,miR-21 reporter
CCN1CCCC1CNC(=O)C(=O)NC(C)c1ccccc1 (configuration not stated),6,0%,3.9%,-2%
CC1CCN(C(c2nnnn2CCc2ccccc2)C(C)C)CC1 (configuration not stated),-22,-7%,0.9%,-1%
O=C1C(Cl)=C(N2CCOCC2)C(=O)N1c1ccccc1Cl,-2,-5%,?,12%
CCOc1ccc(Br)cc1S(=O)(=O)Nc1cccc(S(=O)(=O)N(C)c2ccccc2)c1,-25,-16%,-1.5%,9%
CCN(CC)c1ccc(/C=N/N2C(=O)c3ccccc3C2=O)c(O)c1,3,?,?,-3%
CCn1c(SCC(=O)N/N=C/c2ccc(C)o2)nnc1-c1ccc(C)cc1,2,13%,-4.9%,-7%
CCOC(=O)/C(C#N)=C1/SC(CC)C(=O)N1c1ccc(Br)cc1 (configuration not stated),-8,-8%,3.7%,-6%
CC1(C)C(=O)OC(c2ccc([N+](=O)[O-])cc2)C(C)(C)C1=O (configuration not stated),/,1%,0.0%,-2%
CC(C)C1Cc2c(C#N)c(N)n(C)c(=S)c2CO1 (configuration not stated),0,26%,-2.7%,-28%
O=C(NCc1ccncc1)c1ccc2nc(Cc3ccccc3F)oc2c1,/,1%,-1.5%,3%
CCOC(=O)Cn1nc(/C=C/c2ccc(C(C)C)cc2)ccc1=O,-25,1%,0.0%,-2%
O=C(Cn1nnc(-c2ccncc2)n1)N(C1CCCCC1)C1CCCCC1,-2,?,4.7%,11%
CCCCn1c(=O)[nH]c(=O)c2c1nc(-c1ccc(OC)c(Br)c1)n2CC(C)C,/,4%,-1.7%,-11%
COc1ccc(OC)c(Cc2nnc(CCC(=O)NC3C4CC5CC(C4)CC3C5)o2)c1 (configuration not stated),2,-20%,?,-9%
COc1ccc(F)cc1S(=O)(=O)NCC(c1ccco1)N1CCc2ccccc2C1 (configuration not stated),/,6%,2.8%,/
Cc1ccnc(N/C=C(/NC(=O)c2ccccc2)C(=O)N/N=C\c2ccc(F)cc2)n1,9,11%,0.2%,-6%
O=C(CSc1nnc(C2CC2)n1-c1ccccc1)N1CCNC1=O,/,16%,0.4%,/
Cc1noc(C)c1COc1ccccc1C(=O)N1CCN(S(=O)(=O)c2ccccc2F)CC1,/,-2%,0.8%,/
Cc1ccccc1OCCC(=O)OCC(=O)NCCc1ccc(S(N)(=O)=O)cc1,/,9%,-0.4%,/
S=C(NCc1ccco1)Nc1ccccc1Cl,2,3%,2.6%,-9%
Cn1cnc(C(=O)NCc2ccccc2)c1C(=O)NCc1ccccc1,/,12%,1.5%,/
CCCC(=O)Nc1sc(C)c(-c2ccc(OC)cc2)c1C#N,2,21%,0.3%,-4%
NNC(=S)Nc1cccc(Cl)c1,-2,-5%,-4.4%,0%
CCOC(=O)c1c(NC(=O)CC2SC(N)=NC2=O)sc2c1CCCC2 (configuration not stated),-22,27%,-4.2%,-2%

# Two of these compounds, set out differently.
# Results follow in this order: GLA inh pH 4.5, Rango dissoc inh, Rango-impB inh, miR-21 reporter
COc1ccc(OC)c(Cc2nnc(CCC(=O)NC3C4CC5CC(C4)CC3C5)o2)c1 (configuration not stated)
 : 2, -20%, ?, -9%
Cc1ccnc(N/C=C(/NC(=O)c2ccccc2)C(=O)N/N=C\c2ccc(F)cc2)n1
 : 9, 11%, 0.2%, -6%

# An excerpt of these results, with each value named.
CCCCn1c(=O)[nH]c(=O)c2c1nc(-c1ccc(OC)c(Br)c1)n2CC(C)C
  GLA inh pH 4.5: /; Rango dissoc inh: 4%; Rango-impB inh: -1.7%; miR-21 reporter: -11%

COc1ccc(OC)c(Cc2nnc(CCC(=O)NC3C4CC5CC(C4)CC3C5)o2)c1 (configuration not stated)
  GLA inh pH 4.5: 2; Rango dissoc inh: -20%; Rango-impB inh: ?; miR-21 reporter: -9%

# Further compounds:
SMILES,GLA inh pH 4.5,Rango dissoc inh,Rango-impB inh,miR-21 reporter
N=C1/C(=C/c2ccc(-c3cccc(C(=O)O)c3)o2)C(=O)N=C2SC(CC(=O)N3CCOCC3)=NN12,/,?,?,-3%
Cc1ccccc1C(=O)Nc1cccc(C(=O)N/N=C/c2ccccn2)c1,/,-7%,1.7%,-11%
CCOC(=O)Cn1cc(-c2ccccc2)nn1,4,8%,1.6%,1%
CCCc1ccc2oc(C(=O)NCCCN3CCOCC3)c(C)c2c1,/,2%,0.5%,-42%
CCN(CC)CCNc1ccc(CO)c2sc3ccccc3c(=O)c12,-20&-4,2%,-0.1%,?
O=C(O)c1ccccc1CSc1nc2ccccc2[nH]1,/,0%,-2.9%,-35%
CCOC(=O)C1C(c2cccc(F)c2)NC(=S)NC1(O)C(F)(F)F (configuration not stated),-8,-2%,-2.2%,-1%
Cc1cc2n(c(=O)c1C#N)CCCN2c1ccccc1,4,-1%,-0.4%,-11%
COc1ccc(NC(=O)CN2C(=O)NC(c3ccccc3)(c3ccccc3)C2=O)cc1OC,/,10%,-4.3%,-6%
C/C=C(/C)C(=O)OC1Cc2c(ccc3ccc(=O)oc23)OC1(C)C (configuration not stated),13&-2,-9%,1.1%,?
CCC(=O)OCCNc1cc(Sc2nccn2C)c2nonc2c1[N+](=O)[O-],0,-13%,1.7%,13%
COCCn1c(COc2ccc(C)cc2)nc2ccccc21,2,3%,-0.1%,-41%
Cc1ccc(-c2nnc(SCC(=O)O)n2N)cc1,-10,16%,-5.0%,2%
COc1cc(C)c(CN2CCC(Cc3ccccc3)CC2)cc1C,/,12%,9.1%,5%
COc1cc(C(=O)Oc2ccc(/C=N/NC(=O)c3ccncc3)cc2)cc(OC)c1OC,/,-7%,0.3%,7%
Cc1ccc(C)c(N2CCN(CCCNC(=O)Cn3c(=O)c4cccn4c4cccnc43)CC2)c1,/,12%,-4.6%,0%
CCc1ccn2cc(-c3ccc4c(c3)OCO4)nc2c1,2,6%,2.5%,?
CC1CN(C(=O)COC(=O)c2cc(S(N)(=O)=O)c(Cl)cc2Cl)CC(C)O1 (configuration not stated),/,1%,0.7%,2%
O=C(COC(=O)Cc1n[nH]c(=O)c2ccccc12)NNC(=O)c1ccc(Br)cc1,/,?,-0.8%,/
Cc1ccccc1NC(=O)CC(=O)Nc1ccccc1C,/,-2%,-1.8%,-2%
Cc1cc(Br)cc2c1N(C)C(=O)C2(c1ccc(O)cc1)c1ccc(O)cc1,/,0%,-1.5%,/
CCOc1ccc(N(CC(=O)N2CCN(c3ccccc3)CC2)S(=O)(=O)c2c(C)noc2C)cc1,-3,33%,1.9%,-1%
N#Cc1ccc(S(=O)(=O)N2CCN(c3ncccn3)CC2)cc1,3,0%,-1.5%,1%
O=C(COc1ccc(C(=O)c2ccccc2)cc1)NCC(=O)Nc1ccccc1Br,2,4%,2.7%,10%
CCOc1ccc(-n2c(=O)c3sccc3n(CC(=O)NCCc3ccc(OC)c(OC)c3)c2=O)cc1,-9,-15%,-0.9%,-1%
COCCSc1nnc(NC(=O)Cc2ccc(OC)c(OC)c2)s1,1,-13%,-1.1%,15%
COc1ccc(CCNC(=O)CSc2nc(=O)n3cc(C)ccc3n2)cc1OC,/,9%,1.4%,/
CC(=O)O[C@H]1C[C@@]2(C)[C@@H](C[C@@H](O)[C@H]3[C@@]4(C)CC[C@@H](O)[C@@H](C)[C@@H]4CC[C@@]32C)/C1=C(\CCC=C(C)C)C(=O)O,/,15%&1%,-0.1%&-4.8%,/
CC(C)c1cc(C(=O)O)c2cnn(C(C)C)c2n1,7,0%,-0.5%,-3%
CCc1ccc(N=C2NC(=O)CS2)cc1,/,-10%,-3.0%,0%
CCC1=Nc2cc(C(=O)NCc3ccco3)ccc2Sc2ccccc21,-5,1%,1.1%,11%
CCOC(=O)c1ccc(NC(=O)CNS(=O)(=O)c2ccccc2)cc1,-5,7%,-0.7%,-6%
Cc1ccc(NC(=O)CCOc2ccccc2)cc1,/,2%,1.7%,-67%&-68%
COc1ccccc1CNc1ccc([N+](=O)[O-])cc1C,-8,-10%,-3.4%,-9%
COc1ccc(S(=O)(=O)N2CCc3ccccc32)cc1C(=O)OCc1nnc(-c2ccccc2)o1,-4,0%,-1.0%,-2%
CCOc1ccccc1CN1C(=O)C2(OCCO2)c2ccccc21,/,12%,-0.3%,-2%
O=C(NN1C(=O)NC2(CCCCC2)C1=O)c1ccc(Cl)s1,/,6%,2.3%,/
CCN(CC)CCCNC(=O)CCc1c(C)n(CC)c2cc(-c3ccccc3OC)nn2c1=O,/,-2%,-1.0%,-2%&-1%
COCCn1c(CN2CC(C)CC(C)C2)nc2c1c(=O)n(C)c(=O)n2C (configuration not stated),-1,1%,1.7%,1%
CCOC(=O)N1C2c3ccccc3C(c3ccccc32)N1C(=O)OCC,/,0%,0.6%,/
Cc1cccc(C(=O)N(NC(=O)Oc2ccccc2)C(C)(C)C)c1,-1,15%,-1.0%,7%
O=C(c1ccc(N2CCCCC2)c([N+](=O)[O-])c1)N(c1ccccn1)c1ccccn1,-1,3%,0.0%,-9%
O=C(CSc1nc2ccccc2c(=O)n1-c1ccccc1)N1CCc2ccccc2C1,-15,-11%,1.6%,29%
CCOc1ccc(CC(=O)N2N=C(C)CC2(O)C(F)(F)F)cc1 (configuration not stated),-1,0%,3.1%,0%
CCOc1ccccc1NC(=O)c1cc2ccccc2oc1=O,/,15%,7.6%,-8%
Cc1n[nH]c(=O)c2c(NC(=O)CSc3ccccc3F)oc(C)c12,/,-19%,1.4%,/
Cc1cc(C)nc(SCc2cc(=O)c(OC(=O)c3ccc(S(=O)(=O)N4CCCC4)cc3)co2)n1,5,25%,0.5%,-2%
CCCc1nnc(NC(=O)CCC(=O)N2CCCCC2CC)s1 (configuration not stated),1,24%,4.1%,0%
COc1cccc(NC(=O)Nc2cccs2)c1,7,-12%,-0.3%,-18%
CC(=O)Nc1ccc(C#Cc2ccc(NC(C)=O)cc2)cc1,2,-12%,0.5%,14%
CN(Cc1ccon1)C(=O)CCc1nnc(CCCCc2ccccc2)o1,5,0%,-0.6%,-5%
O=C(Nc1nc(-c2ccc3c(c2)OCO3)cs1)c1ccncc1,1,-3%,-3.8%,21%
CCCc1cc(=O)oc2cc(C)cc(OCC(=O)NCCCn3ccnc3)c12,/,1%,-0.2%,-4%
Cc1ccc(C(=O)NC(C(=O)Nc2cccc(S(N)(=O)=O)c2)C(C)C)cc1 (configuration not stated),-4,3%,3.2%,-3%
S=C(Nc1cccnc1)Nc1ccccc1Br,0,5%,1.5%,-1%
COc1ccccc1N1CCN(C(=O)CSc2nnnn2C2CC2)CC1,/,2%,-0.8%,/
COc1ccc(N2CCN(C(CNC(=O)C3CCCCC3)c3cccnc3)CC2)cc1 (configuration not stated),1,-2%,0.5%,1%
O=C(CN1C(=O)S/C(=C/c2ccncc2)C1=O)Nc1ccccc1,/,39%,0.1%,0%
Cc1ccc(N(C(=O)CNC(=O)c2ccco2)C(C(=O)NC2CCCCC2)c2cccnc2)c(C)c1 (configuration not stated),/,-6%,9.4%,-4%
Cc1ccc(C)n1-n1c(C)nc2sc3c(c2c1=O)CCCCC3,-1,3%,0.7%,-4%
# Next section.
SMILES,GLA inh pH 4.5,Rango dissoc inh,Rango-impB inh,miR-21 reporter
COCCCNC(=O)c1oc2ccc(S(=O)(=O)N3CCOCC3)cc2c1C,/,-4%,0.4%,-1%
COc1cc2c(cc1OC)C(COc1ccc(F)cc1)N(C(C)=O)CC2 (configuration not stated),/,20%,0.4%,-22%
CCNC(=O)N1CCCC(C(=O)c2ccc(C(F)(F)F)cc2)C1 (configuration not stated),/,1%,0.6%,3%
C/C=C(\C)CN1CCC(Oc2ccc(C(=O)NCc3ccccn3)cc2)CC1,/,-5%,-0.7%,-5%
COc1ccc2c(c1)-c1nc(/N=C/c3ccccc3O)sc1CC2,7,-7%,-2.5%,-22%
CC(=O)Nc1ccccc1NC(=O)c1ccccc1-c1ccccc1,/,-4%,2.6%,2%
COC(=O)C1=C(NC(=O)C2CCCCC2)CCS1,16,-17%,?,-4%
COc1ccc(-c2[nH]ncc2CN2CCN(C3CCCCC3)C(=O)C2)cc1F,10,-4%,0.1%,3%
O=C(OCc1ccccc1)c1cc(S(=O)(=O)N2CCCCC2)ccc1N1CCOCC1,/,13%,1.3%,/
CC1=C(C(N)=O)C(c2ccccc2)n2nc(-c3ccncc3)nc2N1 (configuration not stated),-16,-5%,?,1%
